Assay outcomes (PubChem BioAssay)
Env fusion inh: inhibitors of HIV-1 Env-driven cell-cell fusion, primary screen, HeLa-JRFL effector, CEM21 target cells, luciferase. inhibition, % at 12.3 µM. AID 651610, 2012. 360,000 compounds, 1.1% hits;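 active means mean replicate inhibition score of at least 50 and every replicate individually at or above 50; inconclusive means only one of the two criteria met; inactive means mean below 50 and not all replicates reaching 50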;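 further: 0% = plate neutral controls and 100% = maraviroc near 300 nM; one replicate is shown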
Numbers without * were called inactive; [ ] = dose if it differs, or a comment. A portion of the library. The share of hits here may be higher or lower than overall.

Results for CC(C)NC(=O)Nc1ccc2c(c1)C(=O)N([C@H](C)CO)C[C@@H](C)[C@@H](CN(C)C(=O)NC1CCCCC1)OCCCC[C@H](C)O2 ?
Env fusion inh: -10[16.7 µM]

How did CO[C@@H]1CN(C)C(=O)c2ccc(NC(=O)C3CC3)cc2OC[C@H](C)N(Cc2ccncc2)C[C@H]1C do in these assays?
Env fusion inh: -17[16.7 µM]

How did CN(C)C(=O)[C@H]1[C@H](CO)[C@H]2Cn3c(ccc(-c4cncnc4)c3=O)[C@@H]1N2C(=O)NC1CCCC1 do in these assays?
Env fusion inh: 8[16.7 µM]

How did COC(=O)C1=C(C)N(Cc2cccc(C(F)(F)F)c2)C(=NCc2ccc(OC)cc2)NC1c1ccccc1C(F)(F)F (stereo unspecified) do in these assays?
Env fusion inh: -3

How did CC=Cc1ccc2n(c1=O)C[C@@H]1[C@@H](CO)[C@H](C(=O)NCc3cccc(OC)c3)N[C@H]21 (mixture of isomers) do in these assays?
Env fusion inh: 1[16.7 µM]

Results for CC(C)NC(=O)N(C)C[C@H]1OCCCC[C@H](C)Oc2ccc(NC(=O)c3ccncc3)cc2C(=O)N([C@@H](C)CO)C[C@H]1C ?
Env fusion inh: 15[16.7 µM]

What do the screens show for `COc1ccc(S(=O)(=O)N(C)C[C@@H]2Oc3ccc(NS(=O)(=O)c4ccc(F)cc4)cc3CC(=O)N([C@@H](C)CO)C[C@@H]2C)cc1`?
Env fusion inh: -10[16.7 µM]

What do the screens show for `COC(=O)C1=C(C)N(Cc2cccc(C(F)(F)F)c2)C(=NCC2CC2)NC1c1cccc(Cl)c1` (stereo unspecified)?
Env fusion inh: 3

How did COC(=O)C1=C(C)N(Cc2cccc(C(F)(F)F)c2)C(=NCc2ccccc2C(F)(F)F)NC1c1ccccc1C(F)(F)F (stereo unspecified) do in these assays?
Env fusion inh: -13

Results for OCCC(N1CCOCC1)C(O)(c1ccccc1)c1ccccc1 (stereo unspecified) ?
Env fusion inh: -19

How did C[C@H](CO)N1C[C@H](C)[C@H](CN(C)C(=O)C2CCC2)Oc2cc(Br)ccc2S1(=O)=O do in these assays?
Env fusion inh: 31[16.7 µM]

What do the screens show for `COc1cccc(NC(=O)Nc2ccc3c(c2)C(=O)N(C)[C@@H]2CC[C@@H](CC(=O)NCCc4ccccc4)O[C@H]2CO3)c1`?
Env fusion inh: 25[16.7 µM]

How did COCC(=O)Nc1ccc2c(c1)OC[C@H](C)N(C(=O)NC(C)C)C[C@@H](C)[C@H](OC)CN(C)C2=O do in these assays?
Env fusion inh: 25[16.7 µM]

How did COc1cccc(NC(=O)Nc2ccc3c(c2)C(=O)N(C)[C@H]2CC[C@@H](CC(=O)NCCc4ccccc4)O[C@@H]2CO3)c1 do in these assays?
Env fusion inh: -12[16.7 µM]

What do the screens show for `COc1cc(OC)c2c(=O)c3c(C(=O)O)c(O)ccc3oc2c1`?
Env fusion inh: inconclusive

What do the screens show for `COC(=O)[C@@H](Cc1ccc(O)cc1)NC(=O)[C@H]1O[C@@H](n2cnc3c(=O)[nH]c(N)nc32)[C@H](O)[C@@H]1O`?
Env fusion inh: -14

What do the screens show for `CO[C@H]1CC[C@@H]2CCN(C)C(=O)C[C@H](c3ccccc3)CN(C)C(=O)c3cc(C#N)ccc3OC[C@H]1O2`?
Env fusion inh: 9[16.7 µM]

What do the screens show for `C[C@H](CO)N1C[C@H](C)[C@H](CN(C)Cc2ccc3c(c2)OCO3)Oc2c(NS(C)(=O)=O)cccc2C1=O`?
Env fusion inh: -11[16.7 µM]

How did COc1ccc2c3c([nH]c2c1)[C@H](CO)N(C(=O)CN1CCOCC1)CC31CCN(Cc2ccccc2)CC1 do in these assays?
Env fusion inh: -8[16.7 µM]

Results for CCCC(=O)Nc1ccc2c(c1)C(=O)N(C)C[C@@H](OC)[C@@H](C)CN(C(=O)C1CCCC1)[C@H](C)CO2 ?
Env fusion inh: 22[16.7 µM]

What do the screens show for `C[C@H](CO)N1C[C@H](C)[C@H](CN(C)C(=O)[C@H]2CCCN2C)OCc2ccccc2-c2c(n(C)c3ccccc23)C1=O`?
Env fusion inh: -6[16.7 µM]

Results for CC(C)[C@H](NC(=O)c1ccccc1)C(=O)N1CCC[C@H]1C(=O)NCCc1ccccc1Cl ?
Env fusion inh: -4

Results for CC(=NNc1cc(C)c2ccccc2n1)c1ccccn1 ?
Env fusion inh: -309

What do the screens show for `CO[C@H]1CN(C)C(=O)c2cc(NC(=O)NC(C)C)ccc2OC[C@H](C)N(Cc2ccccc2)C[C@@H]1C`?
Env fusion inh: -4[16.7 µM]

Results for O=C(Cc1c[nH]c2ccccc12)Nc1ccc(Nc2cccnc2)cc1 ?
Env fusion inh: 6

What do the screens show for `CO[C@H]1CN(C)C(=O)c2cc(C#N)ccc2OC[C@@H]2O[C@H](CC[C@H]2OC)CCN(C)C(=O)[C@@H]1C`?
Env fusion inh: 15[16.7 µM]

How did C[C@H](CO)N1C[C@H](C)[C@H](CN(C)C(=O)Nc2ccc(F)cc2)Oc2ncc(C#Cc3ccccc3)cc2C1=O do in these assays?
Env fusion inh: 2[16.7 µM]

Results for C[C@@H]1C=CCCO[C@]12C(=O)N(Cc1ccc(F)cc1)c1ccccc12 ?
Env fusion inh: 8

How did COc1cccc(S(=O)(=O)Nc2ccc3c(c2)[C@H]2C[C@H](CC(=O)N4CCCCC4)O[C@H](CO)[C@H]2O3)c1 do in these assays?
Env fusion inh: 6[16.7 µM]

How did CO[C@H]1CN(C)C(=O)c2ccc(NC(=O)C3CC3)cc2OC[C@@H](C)N(Cc2ccncc2)C[C@H]1C do in these assays?
Env fusion inh: -46[16.7 µM]

How did Cc1ccc(S(=O)(=O)N(C)C[C@H]2Oc3ccc(NS(=O)(=O)c4cn(C)cn4)cc3C(=O)N([C@@H](C)CO)C[C@H]2C)cc1 do in these assays?
Env fusion inh: 6[16.7 µM]

Results for CO[C@@H]1CN(C)C(=O)c2cc(NS(=O)(=O)CC(F)(F)F)ccc2OC[C@@H](C)N(CC2CCCCC2)C[C@H]1C ?
Env fusion inh: -1[16.7 µM]

How did COc1cccc(-c2cc(CNC(=O)[C@H]3O[C@@H](n4cnc(C(N)=O)n4)[C@H](O)[C@@H]3O)no2)c1 do in these assays?
Env fusion inh: 13

How did C=CCN1[C@@H](C)[C@H](c2ccccc2)Oc2cccc(NCC(C)C)c2S1(=O)=O do in these assays?
Env fusion inh: 42

Results for OC(c1ccccc1)(c1ccccc1)C1CCN(CCCOc2ccccn2)CC1 ?
Env fusion inh: inconclusive

What do the screens show for `C/C=C/c1ccc([C@@H]2[C@H](CO)N(C(=O)C3CCC3)C23CN(S(=O)(=O)CC)C3)cc1`?
Env fusion inh: -3[16.7 µM]

How did Cc1ccc(NC(=S)Nc2ccc(-c3nnc4n3CCCCC4)cc2)cc1C do in these assays?
Env fusion inh: 7

How did C[C@@H]1CN([C@H](C)CO)C(=O)c2ccccc2-c2ccccc2CO[C@@H]1CN(C)C(=O)Nc1ccc(F)cc1 do in these assays?
Env fusion inh: -25[16.7 µM]

How did COc1ccccc1NC(=O)N1C[C@@H](O)COC[C@@H]2O[C@@H](CC(=O)NCc3ccccc3)CC[C@H]21 do in these assays?
Env fusion inh: 14[16.7 µM]

Results for CCC(=O)Nc1ccc2c(c1)OC[C@H](C)N(Cc1nccs1)C[C@@H](C)[C@H](OC)CN(C)C2=O ?
Env fusion inh: -20[16.7 µM]

What do the screens show for `COC(=O)c1ccsc1NS(C)(=O)=O`?
Env fusion inh: -29

Results for Cc1ccc(S(=O)(=O)N[C@H]2C=C[C@H](CC(=O)NCCN3CCCCC3)O[C@@H]2CO)cc1 ?
Env fusion inh: 15[16.7 µM]

What do the screens show for `C[C@@H]1CN([C@@H](C)CO)C(=O)c2cccc(NS(C)(=O)=O)c2O[C@H]1CN(C)Cc1ccc(Cl)c(Cl)c1`?
Env fusion inh: 19[16.7 µM]

Results for COc1ccc(S(=O)(=O)N(C)C[C@H]2Oc3ncc(/C=C/c4ccccc4)cc3C(=O)N([C@@H](C)CO)C[C@H]2C)cc1 ?
Env fusion inh: -7[16.7 µM]

What do the screens show for `CC(C)NC(=O)Nc1ccc2c(c1)C(=O)N([C@H](C)CO)C[C@@H](C)[C@@H](CN(C)CC1CCCCC1)OCCCC[C@H](C)O2`?
Env fusion inh: -19[16.7 µM]

How did COC(=O)[C@]12C[C@H](CC(=O)N3CCN(C(=O)c4ccco4)CC3)C(=O)N(Cc3ccc4c(c3)OCO4)C1=C[C@H](COCc1ccccc1)O[C@@H]2C do in these assays?
Env fusion inh: -7

What do the screens show for `Cc1c(COC(=O)NC(C)C)c(COC(=O)NC(C)C)c2n1CS(=O)(=O)C2`?
Env fusion inh: 11

What do the screens show for `Cc1ccccc1S(=O)(=O)N(C)C[C@H]1OCc2ccccc2-c2ccccc2C(=O)N([C@H](C)CO)C[C@@H]1C`?
Env fusion inh: 13[16.7 µM]

What do the screens show for `O=C(C[C@@H]1C[C@H]2c3cc(NC(=O)Nc4ccccc4)ccc3O[C@H]2[C@@H](CO)O1)NCCN1CCCCC1`?
Env fusion inh: 13[16.7 µM]

How did Cc1ccc(-c2nc3c(C)cc(Br)cn3c2Cc2ccccc2C(F)(F)F)cc1 do in these assays?
Env fusion inh: -16

Structures above that contain a cyano group, in the order listed:
What do the screens show for `CO[C@H]1CC[C@@H]2CCN(C)C(=O)C[C@H](c3ccccc3)CN(C)C(=O)c3cc(C#N)ccc3OC[C@H]1O2`?
Env fusion inh: 9[16.7 µM]

What do the screens show for `CO[C@H]1CN(C)C(=O)c2cc(C#N)ccc2OC[C@@H]2O[C@H](CC[C@H]2OC)CCN(C)C(=O)[C@@H]1C`?
Env fusion inh: 15[16.7 µM]

New compounds follow:
What do the screens show for `C[C@@H]1CN([C@@H](C)CO)C(=O)c2c(c3ccccc3n2C)-c2ccccc2CO[C@H]1CN(C)C`?
Env fusion inh: -19[16.7 µM]

Results for COc1ccc(NC(=O)N(C)C[C@H]2Oc3ccc(NC(=O)Cc4ccccc4)cc3C(=O)N([C@H](C)CO)C[C@H]2C)cc1 ?
Env fusion inh: 25[16.7 µM]

Results for CC(C)NC(=O)Nc1ccc2c(c1)CC(=O)N([C@H](C)CO)C[C@H](C)[C@@H](CN(C)Cc1ccc(C(=O)Nc3ccccc3N)cc1)O2 ?
Env fusion inh: -29[16.7 µM]

How did CCC(=O)N1C[C@H](C)[C@@H](OC)CN(C)C(=O)c2ccc(NC(=O)c3cc(C)on3)cc2OC[C@H]1C do in these assays?
Env fusion inh: 0[16.7 µM]

Results for COC[C@@]12C[C@H]3C(=O)N(Cc4ccccc4)C(=O)[C@H]3[C@@H](CO1)/C2=C\c1ccccc1 ?
Env fusion inh: -11[16.7 µM]

How did C[C@@H]1CCCCO[C@H](CN(C)CC2CC2)[C@@H](C)CN([C@H](C)CO)C(=O)c2cc(NC(=O)Cc3ccccc3)ccc2O1 do in these assays?
Env fusion inh: -8[16.7 µM]

How did CO[C@H]1CN(C)C(=O)c2ccc(NC(=O)c3cc(C)on3)cc2OC[C@@H](C)N(C)C[C@H]1C do in these assays?
Env fusion inh: -3[16.7 µM]

Results for CO[C@@H]1CC[C@@H]2CCOc3ccc(C#N)cc3C(=O)N(C)[C@H](C)C(=O)N(C)C[C@@H]1O2 ?
Env fusion inh: 15[16.7 µM]

Results for COC(=O)C[C@@H]1C[C@@H]2c3cc(N)ccc3O[C@@H]2[C@H](CO)O1 ?
Env fusion inh: -24[16.7 µM]

What do the screens show for `COc1ccc(CNC(=O)C[C@H]2C[C@H]3c4cc(NC(=O)C5CCC5)ccc4O[C@H]3[C@H](CO)O2)cc1`?
Env fusion inh: -3[16.7 µM]

Results for CN1C(=O)c2cc(NC(=O)Cc3cccs3)ccc2OC[C@H]2O[C@H](CC(=O)NCCCN3CCOCC3)CC[C@@H]21 ?
Env fusion inh: 7[16.7 µM]

Results for O=C(NCCc1ccncc1)[C@@H]1[C@@H](CO)[C@@H]2Cn3c(ccc(-c4ccc(F)cc4)c3=O)[C@H]1N2 ?
Env fusion inh: 1[16.7 µM]

What do the screens show for `CCCCNc1cccc2c1S(=O)(=O)N[C@@H](CC(C)C)CO2`?
Env fusion inh: -11

Results for CO[C@H]1CN(C)C(=O)c2cc(NC(=O)Nc3ccc(Cl)cc3)ccc2OC[C@H](C)N(C(=O)Nc2c(C)noc2C)C[C@@H]1C ?
Env fusion inh: 11[16.7 µM]

What do the screens show for `C[C@H](O)[C@@H]1CN2CCc3ccc(-c4ccc5c(c4)OCO5)cc3[C@@H]2C[C@@H]1N(C)C(=O)NC1CCCCC1`?
Env fusion inh: 0

What do the screens show for `COc1ccc(NC(=O)N(C)C[C@H]2OCc3ccccc3-c3c(n(C)c4ccccc34)C(=O)N([C@H](C)CO)C[C@H]2C)c(OC)c1`?
Env fusion inh: -59[16.7 µM]

How did C[C@@H]1CCCCO[C@@H](CN(C)Cc2ccccc2)[C@H](C)CN([C@H](C)CO)C(=O)c2cc(N(C)C)ccc2O1 do in these assays?
Env fusion inh: 17[16.7 µM]

Results for CC(C)NC(=O)N(C)C[C@H]1Oc2ncc(C#CC3CC3)cc2C(=O)N([C@H](C)CO)C[C@H]1C ?
Env fusion inh: 0[16.7 µM]

Compounds above containing a Cl atom, in the order listed:
What do the screens show for `COC(=O)C1=C(C)N(Cc2cccc(C(F)(F)F)c2)C(=NCC2CC2)NC1c1cccc(Cl)c1` (stereo unspecified)?
Env fusion inh: 3

Results for CC(C)[C@H](NC(=O)c1ccccc1)C(=O)N1CCC[C@H]1C(=O)NCCc1ccccc1Cl ?
Env fusion inh: -4

What do the screens show for `C[C@@H]1CN([C@@H](C)CO)C(=O)c2cccc(NS(C)(=O)=O)c2O[C@H]1CN(C)Cc1ccc(Cl)c(Cl)c1`?
Env fusion inh: 19[16.7 µM]

Results for CO[C@H]1CN(C)C(=O)c2cc(NC(=O)Nc3ccc(Cl)cc3)ccc2OC[C@H](C)N(C(=O)Nc2c(C)noc2C)C[C@@H]1C ?
Env fusion inh: 11[16.7 µM]
